Screening results (PubChem BioAssay)
PrP UTR inh – suppresses PrP 5' UTR mRNA reporter expression. cell-based PrP 5' UTR mRNA reporter, plate reader. inhibition, % (concentration not given with the values). 340,000 tested, 0.35% active. AID 488862;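 active = every replicate at 50% or more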;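 also: 0 = median of the neutral control wells; tested in H4 reporter cells; numbers are from one replicate; inactives centre near -14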
Bead autofluor – flagged as autofluorescent in microsphere protease counterscreen. fluorescence intensity (concentration not given with the values). compound autofluorescence counterscreen, microsphere flow cytometry; hits give high values. AID 624483. 360,000 tested, 3.1% active;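 active = at least 3 SD above the mean of all compounds, about 16000 in these data; inconclusive = too few beads counted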;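 also: 100 nL of 1 mM stock went into each well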
BJeLR lethal – BJeLR cell viability loss; BJeLR (HRASV12) viability, CellTiter-Glo ATP luminescence, 48 h; reference of the scale not given here; inhibition, % (test concentration not listed); 300,000 tested, 0.17% active; AID 1554;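 active = replicate mean above 50%; inconclusive = above 50% but judged a plate artefact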;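 also: 50 nL library stock added to about 25 µL; numbers are from one replicate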
Sa ugtP lethal – kills S. aureus RN4220 lacking UgtP | S. aureus RN4220 ugtP deletion, OD600 growth, 16 h; some inactives read as strong as hits | growth inhibition, % (test concentration not listed) | 330,000 tested, 0.54% active | AID 1259309;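 active = z-score under -3 and OD600 up to 0.15 on both plates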;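 also: plate controls were untreated wells for no effect and antibiotic for full effect; wells of about 80 µL received 100 nL stock; the first replicate is given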
Mtb hypoxia inh – Mtb hypoxia fluorescent reporter inhibition; M. tuberculosis hypoxia-regulated fluorescent reporter, fluorescence; fluorescence inhibition, % (concentration not given with the values); 300,000 tested, 0.1% active; AID 1159583;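 active = 35 to 45% if threefold the growth effect, above 45% if 1.5-fold the growth effect; inactive = the rest, general growth blockers included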;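 also: wells of about 50 µL received 100 nL stock; 0% = vehicle wells and 100% = reference inhibitor wells; whole bacteria with a GFP reporter of the hypoxia response; strong numbers were not always called active; many hits fall short of the cut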
RN4220 kill – kills Staphylococcus aureus RN4220; S. aureus RN4220 growth, OD600, 16 h; inhibition, % (concentration not given with the values); 330,000 tested, 0.33% active;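 active = z-score of -3 or lower and OD600 up to 0.18 on both plates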;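 also: plate controls were untreated cells for no effect and reference antibiotic for full effect; stock transfer was 100 nL into about 80 µL; one replicate is shown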
Mtb hypoxia inh growth – further read-out of Mtb hypoxia inh, marked with its call; growth inhibition, %; measured here: M. tuberculosis growth (absorbance);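 0% = vehicle and 100% = reference antibiotic; read after six days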
The depositor's hits bear a star; ? = inconclusive; nt = no result given; & = joins results of further samples.

SMILES	PrP UTR inh	Bead autofluor	BJeLR lethal	Sa ugtP lethal	Mtb hypoxia inh	Mtb hypoxia inh growth	RN4220 kill
N/C(Cc1nc2ccccc2s1)=N\O	-22	4295	-1	nt	nt	nt	nt
CN(C)c1ccc(/C=C(\C#N)C(=O)OCC(=O)N(C)C2CCS(=O)(=O)C2)cc1 (stereo unspecified)	-8	4457	nt	1	-6	4	3.4
C=CCCC(Cc1ccc(F)cc1)C(=O)OCC(Cc1c[nH]c2ccccc12)NC(=O)C(CC=C)CC(=O)NC(CO)Cc1ccccc1 (stereo unspecified)	nt	nt	nt	0&-5&5&15&-1&-32&-22&-29&-10	6&20&12&5&-2&5&9&7&-2	-4&23&10&7&-2&3&11&7&6	5.7&-5.0&-2.7&16&16&3.8&0.7&-2.6&-5.3
CCc1nnc(N/N=C/c2cc(Br)c(O)cc2O)n1N	-68	4069	-2	nt	nt	nt	nt
CC1CCCN(C(=O)COC(=O)Cc2c(F)cccc2Cl)C1 (stereo unspecified)	-26	3650	0	5	-2	5	4.1
O=C(COC(=O)c1ccccc1)Nc1ccccc1Sc1ccccc1	-12	2434	7	4	10	4	8.5
CCOC(=O)Cc1cc(-c2ccccc2)nc2ccc3ccccc3c12	-9	2991	-17	3	6	7	-4.9
COC(=O)c1cnc(NNS(=O)(=O)c2ccc(C(F)(F)F)cc2)nc1C(F)(F)F	-18	3833	-3	-12	-4	-17	2.2
CCOC(=O)/C=C(\C)Sc1cc(O)c2ccccc2c1O	-32	3496	nt	93*	12	11	97*
COc1ccc(C(=O)NCC(=O)OCC(=O)c2ccc3c(c2)OCCO3)cc1	-9	4218	-7	2	10	8	3.8
CCN(CC)c1ccc(S(=O)(=O)N2CCCCC2)cc1NC(=O)CSCc1c(C)noc1C	3	2966	nt	-5	9	3	9.6
Cc1cccc(Nc2nc(N)nc(CCl)n2)c1	-36	4052	94*	-1	nt	nt	10
Cc1ccc(Cn2nnc3c(=O)n(CC(=O)N4CCCc5ccccc54)cnc32)cc1	-6	8246	1	23	14	4	-3.9
CC(C)(O)c1cn(-c2nonc2N)nn1	-12	2925	8	3	nt	nt	1.5
CCOc1cc(CNCc2cccs2)cc(Br)c1OC	-28	2485	-5	5	7	6	-6.3
Fc1cccc(Nc2ncnc3sc4c(c23)CCC4)c1	2	7954	10	0	9	1	6.7
CC(C)Sc1nc2sc3c(c2c2nnc(SCC(=O)NCc4ccco4)n12)CCCC3	-6	5120	8	-5	nt	nt	-2.3
CCCCCC(=O)NC(=S)Nc1ccc(N2CCOCC2)cc1	-20	2500	4	91*	nt	nt	1.0
CCOC(=O)/C=C/C(=O)Nc1ccc(S(=O)(=O)N2CCc3ccccc32)cc1	0	3140	13	2	11	3	8.4
CCC(=O)N1c2ccccc2NC2=C(C(=O)CCC2)C1c1ccco1 (stereo unspecified)	-18	4406	5	3	7	3	4.5
CC(=NNC(=O)c1cc(C)nc2ccc(C)cc12)c1ccncc1	nt	nt	nt	9	1	9	-0.3
COc1ccc(NC2CCCN(C(=O)c3ccc4nc(C)c(C)nc4c3)C2)cc1OC (stereo unspecified)	5	4398	-2	-6	-1	-4	-4.1
CCN(CC)S(=O)(=O)c1cc(NC(=O)CSc2nccn2C)ccc1C	-20	4734	8	3	1	-4	1.8
CC(C)C1Nc2ccc(S(N)(=O)=O)cc2C2C=CCC21 (stereo unspecified)	-18	3865	-2	-6	nt	nt	-2.9
COc1ccc(C(c2sc3nc(C)nn3c2O)N2CCC(O)CC2)cc1OC (stereo unspecified)	-2	5923	11	1	0	6	-15
O=C(COC(=O)C1CCN(S(=O)(=O)c2ccc3c(c2)OCCO3)CC1)Nc1cccc2ccccc12	-9	2378	2	2	8	3	3.7
CN(C)C(=O)/C(=C\c1cccc(Oc2ccccc2)c1)NC(=O)c1ccccc1	-9	7638	0	nt	nt	nt	nt
c1cc(CCN2CCCC2)ccn1	-8	3913	-9	2	-3	-5	1.0
Cc1cc(Br)cc2c1NC(=O)C2(O)CC(=O)c1ccco1 (stereo unspecified)	-22	4065	-4	-4	-4	9	15
Cc1nnc(SCC(=O)NCC2CCCO2)n1Cc1ccccc1 (stereo unspecified)	-8	3101	nt	0	-1	-2	0.5
COc1ccc(CN2CCN(S(=O)(=O)c3ccc(F)cc3)CC2)c(OC)c1OC	-2	21826*	9	-1	-1	8	1.5
O=C1C2C3C=CC(CC3)C2C(=O)N1c1ccc(Cl)cc1 (stereo unspecified)	-19	nt	-6	12	4	0	3.7
O=CC(Cl)P(=O)(N1CCOCC1)N1CCOCC1 (stereo unspecified)	-16	3971	-7	3	-6	-6	0.8
CN(C)S(=O)(=O)c1ccc2c(c1)C(CC(=O)O)OC2=O (stereo unspecified)	7	6514	10	8	4	1	4.9
CC1OC2(OC1C)C(=O)Nc1ccccc12 (stereo unspecified)	-9	4737	11	2	nt	nt	0.1
CS(=O)(=O)N(CC(=O)N1CCN(c2ccccc2F)CC1)c1ccc2c(c1)OCCO2	-27	7698	-6	4	-1	0	6.3
NC(=O)c1ccc2c(c1)S(=O)(=O)c1ccccc1C2=O	8	3732	2	6	5	13	14
Cc1ccsc1C(=O)Nc1ccc(S(=O)(=O)N2CCOCC2)cc1	-2	8449	nt	-2	7	-2	2.8
COc1ccc(CNC(=O)[C@@H](C)NC(=O)C2CCN(C(=O)[C@@H](N)CCSC)CC2)cc1	-10	5540	6	4	nt	nt	1.1
CCOc1ccc(OCC)c(S(=O)(=O)NCCOC23CC4CC(CC(C4)C2)C3)c1	-11	2558	-5	9	3	7	4.4
CC1(C)CC(CC(=O)O)CC(C)(C)N1	-12	4385	-6	0	7	-6	0.6
CCCc1nc(NCc2ccccn2)c2nnn(Cc3ccccc3F)c2n1	13	2488	11	14	-7	-4	24
Cn1nc(C(F)(F)F)c(C(=O)Nc2ccc(Cl)cc2)c1Cl	-5	?	-1	8	5	-5	3.8
COc1cc(NC(=O)CN2C(=O)NC(C)(c3ccc4ccccc4c3)C2=O)c(C)cc1[N+](=O)[O-] (stereo unspecified)	-7	2072	3	-12	-3	14	-10
CCCC[C@H](CN(N=O)[C@@H](Cc1ccccc1)CN(C)N=O)N(CCc1ccccc1)N=O	-35	4215	-5	nt	nt	nt	nt
COc1ccccc1C(c1nnnn1C(C)(C)C)N1CCN(Cc2ccccc2)CC1 (stereo unspecified)	-7	3172	9	2	3	0	-0.1
COc1cccc(N2C(=O)NC(=O)/C(=C/c3ccc4c5c(cccc35)CC4)C2=O)c1	nt	nt	1	5	-3	-8	1.9
CCOC(=O)C1CCN(C(c2cc3ccc(C)c(C)c3[nH]c2=O)c2nnnn2C2CCCCC2)CC1 (stereo unspecified)	4	60118*	-6	-4	-8	10	2.0
Cc1c(-c2cccc(Cl)c2)nc2ccccc2c1C(=O)N1CCC2(CC1)OCCO2	0	5870	4	-11	-8	3	-3.2
Cc1c(NC(=O)c2noc(C(C)C)c2[N+](=O)[O-])c(=O)n(-c2ccccc2)n1C	-29	5262	4	5	13	10	-0.2
CC(SCc1cn2cc(Cl)ccc2n1)C(=O)O (stereo unspecified)	-6	3390	-6	0	6	-9	5.2
CCc1ccc(N2CC(C(=O)Nc3ccc(S(=O)(=O)N4CCCCC4)cc3)CC2=O)cc1 (stereo unspecified)	3	4389	2	-12	-8	-5	-5.4
O=C(Cc1ccccc1)NN1C(=O)/C(=C/c2ccccc2C(=O)O)SC1=S	-9	2475	1	-1	13	0	8.9
CC(=O)N/C(=N/c1nc(C)cc(C)n1)Nc1ccc(NC(C)=O)cc1	-2	4180	4	0	nt	nt	-0.4
CCCNc1c(F)c(F)c2c(C)c3ccccc3nc2c1F	-55	3066	-6	3	3	0	2.4
COc1cc(OC)cc(C(=O)NCCSC2CCCCC2)c1	7	2499	2	-1	2	1	2.5
N#Cc1ccc(C(=O)N(Cc2ccco2)c2c(N)n(Cc3ccccc3)c(=O)[nH]c2=O)cc1	-24	3879	nt	3	11	3	-2.8
COCCSc1nnc(NC(=O)CSc2ccccc2)s1	-29	12110	-3	3	9	6	4.3
C[C@@H](NCCc1ccc(O)cc1)[C@@H](O)c1ccc(O)cc1	1	4076	-1	nt	nt	nt	nt
C=CCn1c(=O)c(C(=O)Nc2cccnc2)c(O)c2ccccc21	-4	2305	-2	61	nt	nt	99*
(more compounds)
SMILES	PrP UTR inh	Bead autofluor	BJeLR lethal	Sa ugtP lethal	Mtb hypoxia inh	Mtb hypoxia inh growth	RN4220 kill
CN(CC(=O)Nc1ccccc1Cl)C(=O)COC(=O)/C=C/c1ccccc1	-7	5356	-7	9	-3	0	3.5
CC(C)CC1Nc2ncnc(N3CCOCC3)c2N(Cc2ccccc2)C1=O (stereo unspecified)	-7	4402&5481	nt	-11	0	6	0.1
COc1cc(C(=O)OCC(=O)Nc2cccc(S(=O)(=O)N3CCOCC3)c2)ccc1OCC(C)C	-12	4457	3	6	11	7	4.8
COc1ccc(C2=NOC3(CC(=O)N(c4ccc(C)cc4)C3=O)C2)cc1 (stereo unspecified)	nt	10917	-10	-4	3	7	4.0
CCN(CC)S(=O)(=O)c1ccc(C(=O)NCc2n[nH]c(=S)n2-c2ccc(Cl)c(Cl)c2)cc1	-17	2610	-2	-11	4	-1	2.9
COc1cccc(C(=O)Nc2ccc3nc4n(c(=O)c3c2)CCCC4)c1	-31	3814	16	7	-3	-1	1.4
CCn1cc(/C=C/C(=O)c2ccc(O)cc2)c(C)n1	-55	5061	9	3	2	6	12
Cc1ccc(S(=O)(=O)NCC(c2cccnc2)N2CCN(Cc3ccccc3)CC2)cc1 (stereo unspecified)	-19	6337	-3	7	-5	10	2.5
CCOc1ccc(OCC)c(S(=O)(=O)N2CCCCC2)c1	-15	16071	9	9	0	2	1.3
Oc1cccc(NC(=S)Nc2cccnc2)c1	-6	10116	-5	13	15	3	4.6
C=CCOc1c(Br)cc(CNc2ccc(NC(=O)C(C)C)c(OC)c2)cc1OCC	2	2792	3	-7	nt	nt	1.7
CCCSc1nc2cc(OC)c(OC)cc2c(=N)n1CCCN1CCOCC1	-35	4096	-10	3	-1	10	4.0

Gathered by group, the entries above with a Cl atom (9)
SMILES	PrP UTR inh	Bead autofluor	BJeLR lethal	Sa ugtP lethal	Mtb hypoxia inh	Mtb hypoxia inh growth	RN4220 kill
CC1CCCN(C(=O)COC(=O)Cc2c(F)cccc2Cl)C1 (stereo unspecified)	-26	3650	0	5	-2	5	4.1
Cc1cccc(Nc2nc(N)nc(CCl)n2)c1	-36	4052	94*	-1	nt	nt	10
O=C1C2C3C=CC(CC3)C2C(=O)N1c1ccc(Cl)cc1 (stereo unspecified)	-19	nt	-6	12	4	0	3.7
O=CC(Cl)P(=O)(N1CCOCC1)N1CCOCC1 (stereo unspecified)	-16	3971	-7	3	-6	-6	0.8
Cn1nc(C(F)(F)F)c(C(=O)Nc2ccc(Cl)cc2)c1Cl	-5	?	-1	8	5	-5	3.8
Cc1c(-c2cccc(Cl)c2)nc2ccccc2c1C(=O)N1CCC2(CC1)OCCO2	0	5870	4	-11	-8	3	-3.2
CC(SCc1cn2cc(Cl)ccc2n1)C(=O)O (stereo unspecified)	-6	3390	-6	0	6	-9	5.2
CN(CC(=O)Nc1ccccc1Cl)C(=O)COC(=O)/C=C/c1ccccc1	-7	5356	-7	9	-3	0	3.5
CCN(CC)S(=O)(=O)c1ccc(C(=O)NCc2n[nH]c(=S)n2-c2ccc(Cl)c(Cl)c2)cc1	-17	2610	-2	-11	4	-1	2.9
